# VDR inhibitor: Inhibitors of the vitamin D receptor (VDR): qHTS; hit rate 0.93% among 400,000; Vitamin D3 receptor (Homo sapiens), P11473; Potency, µM, for the others: max response, negative = inhibition, usual class: inhibitors; VDR-SRC2-3 peptide fluorescence polarization, 2 h; AID 504847, 2011; active means well fitted inhibition curve with a large enough effect; inconclusive means small, poorly fitted or top-dose-only effect, or another doubt; inactive means no such curve, though single readings can be large or run the other way; further: series mostly up to about 120 µM
# Target sequence (P11473 whole entry, looked up): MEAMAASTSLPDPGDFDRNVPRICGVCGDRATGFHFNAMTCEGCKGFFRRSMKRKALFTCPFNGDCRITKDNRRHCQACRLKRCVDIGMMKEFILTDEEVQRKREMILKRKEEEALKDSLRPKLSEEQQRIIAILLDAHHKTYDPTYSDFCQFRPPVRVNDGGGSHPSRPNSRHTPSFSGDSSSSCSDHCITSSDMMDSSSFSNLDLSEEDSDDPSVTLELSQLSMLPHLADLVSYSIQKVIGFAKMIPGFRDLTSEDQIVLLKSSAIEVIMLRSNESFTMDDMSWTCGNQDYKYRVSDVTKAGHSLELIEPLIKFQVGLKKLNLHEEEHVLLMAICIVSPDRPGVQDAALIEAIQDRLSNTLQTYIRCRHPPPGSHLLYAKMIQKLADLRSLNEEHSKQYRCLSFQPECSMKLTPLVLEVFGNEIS
#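 Reagent solutions, kept cold and dark, are dispensed first; compounds are then pinned in at 23 nl, plates briefly spun, and incubated 2 h at ambient temperature. Inhibition of VDR–SRC2-3 peptide binding is read by fluorescence polarization.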
# An asterisk follows results filed as active; ? = inconclusive; & = joins results of further samples; ! = not active in a repeat. On the % scale 0 is the no-effect control and ±100 the full control effect; potency means the concentration at half of the fitted maximal effect. This is a subset. The share of hits here may be higher or lower than overall.
SMILES,VDR inhibitor
CCCCC/C=C\C/C=C\C/C=C\C/C=C\CCCC(=O)N[C@H](C)CO,35µM*!
CCCCCc1nc2ccccc2c(=O)n1-c1ccccc1[N+](=O)[O-],0%
N#CC(C#N)=NNc1ccc(S(=O)(=O)N2CCCC2)cc1,?
Cc1ncc(CN2CCCC(C(=O)c3cccc(Cl)c3)C2)s1 (stereo not given),-7%
CCOC(=O)c1nc2ccccc2c(=O)n1-c1cccc(C)c1,-8%
COc1ccc(C(CC(=O)N2CCC3(CC2)OCCO3)NS(=O)(=O)c2ccc(F)cc2)cc1 (stereo not given),-1%
CN(C)Cc1c[nH]c2ccccc12,-1%&4%
CCN(CC)CCNCC(=O)Nc1ccc(Cl)cc1C(=O)c1ccccc1,-13%
O=C(c1cccs1)N1C2CCC1CC(O)(c1cccnc1)C2 (stereo not given),-19%
COc1cc(-n2c(=S)[nH]c3ccc(C)cc3c2=O)c(Cl)cc1Cl,18%
O=c1[nH]c(O)c(C=Nc2cccc(F)c2)c(=O)[nH]1,-8%
Oc1ccccc1-c1ccccc1,0%
COCOC1CCC2C3CCC4=CC(=O)CCC4=C3C=CC12C (stereo not given),-1%
COc1ccc(/C=C/C(=O)c2c(O)n(CCC3=CCCCC3)c(=O)[nH]c2=O)cc1OC,-9%
COc1ccc(OC)c(C(c2c(O)c3ccccc3oc2=O)c2c(C)n(C)n(-c3ccccc3)c2=O)c1 (stereo not given),-3%&-20%
O=c1[nH]c(=S)[nH]c(O)c1N=Nc1ccc2c(c1)OCO2,-9%
COc1cccc(O)c1CN1CCCC(C(=O)c2sccc2C)C1 (stereo not given),8%
O=[N+]([O-])O[C@H]1CO[C@H]2[C@H]1OC[C@@H]2O[N+](=O)[O-],4%
CN1CCN(c2ccc([N+](=O)[O-])c(NCC3CCCO3)c2)CC1 (stereo not given),0%
O=C1NC(=S)NC(=O)C1=Cc1cccn1-c1ccc(O)cc1,25µM*
COc1c(C=C2C(=O)NC(=O)NC2=O)c(CCN(C)C(=O)c2ccccc2)cc2c1OCO2,?
CCCCCCn1c(O)c(C(C)=NC)c(=O)[nH]c1=O,-4%
CC1CCCCN1C(=O)Cn1cc(C=C2C(=O)N(C)C(=O)N(C)C2=O)c2ccccc21 (stereo not given),-9%
Clc1ccc(CCNCc2ccncc2)c(Cl)c1,-11%
OCC1CN1C1CCCCC1 (stereo not given),-11%
CCOC(=O)C1(c2ccccc2)CCN(Cc2cccc(C(=O)O)c2)CC1,1%
c1ccc(C(OCCN2CCNCC2)c2ccccc2)cc1,6%
Cc1cc(C)nc(NS(=O)(=O)c2ccc(N=Cc3c(O)n(C)c(=O)n(C)c3=O)cc2)n1,-3%
COc1ccc(NP(=O)(Nc2ccc(OC)cc2)Oc2ccccc2)cc1,5%
C/C(=C\c1csc(C)n1)[C@@H]1C[C@@H]2O[C@]2(C)CCC[C@H](C)[C@H](O)[C@@H](C)C(=O)C(C)(C)[C@@H](O)CC(=O)O1,-4%
CC(=NNC(=S)N1CC2CCC(CC2)C1)c1nccs1,-15%
COc1ccccc1-n1c(/C=C/c2ccc(O)cc2)nc2ccccc2c1=O,-1%
COC(=O)c1cc(Oc2ccc(Cl)cc2Cl)ccc1[N+](=O)[O-],0%
Cc1ccc(N=CN(C)C=Nc2ccc(C)cc2C)c(C)c1,6%
O=[N+]([O-])c1ccc(OP(=O)(O)Oc2ccc([N+](=O)[O-])cc2)cc1,-17%
CNCCc1ccc(OC)c(OC)c1,-1%
Cc1nn(Cc2ccccc2Cl)c(Cl)c1C(=O)O,4%
C=CCn1c(O)c(C(CC)=Nc2ccc(C(=O)O)cc2)c(=O)[nH]c1=O,-10%
COc1ccc(NC(=O)c2cn(CCC#N)nc2-c2ccc([N+](=O)[O-])cc2)cc1,0%
Cc1cccc(NC(=O)[C@@H](NC(=O)N2C[C@H]3C[C@@H](C2)c2cccc(=O)n2C3)C(C)C)c1,9%
CSc1ncc(/C=C2/C(=O)NC(=O)N(c3ccc(C(C)C)cc3)C2=O)cn1,?
CCCn1c(C)c(C(=O)c2cccc3ccccc23)c2ccccc21,-10%&8%
COc1ccccc1N1CCN(Cc2ccc(Br)cc2)CC1,-2%
CC1=NN(c2ccccc2)C(=O)/C1=C/c1c(O)[nH]c(=S)[nH]c1=O,?
C[N+](C)(C)Cc1ccccc1,0%
CN1C(=O)NC(=O)C2(CCCC2)C1=O,8%
Cc1ccc(N)cc1C,10%
COC[C@]12CN(C=O)C3C4C(OC)C1[C@@]3(C1CC3(O)C(OC)C(O)C4(OC(C)=O)C1C3OC(=O)c1ccccc1)[C@@H](OC)CC2O (stereo not given in full),-6%
CCN1C[C@]2(COC)CC[C@H](OC)[C@@]34C5C[C@H]6C(=O)C5[C@](O)(C[C@H]6OC)[C@@](O)(C(OC)C23)[C@@H]14 (stereo not given in full),-6%
CCN1CC2(COC(=O)c3ccccc3N)CCC(OC)C34C5CC6C(OC)CC(O)(C5C6OC)C(O)(C(OC)C23)C14 (stereo not given),-7%

# Some of the entries so far, with tabs:
SMILES	VDR inhibitor
COc1ccc(NP(=O)(Nc2ccc(OC)cc2)Oc2ccccc2)cc1	5%
C/C(=C\c1csc(C)n1)[C@@H]1C[C@@H]2O[C@]2(C)CCC[C@H](C)[C@H](O)[C@@H](C)C(=O)C(C)(C)[C@@H](O)CC(=O)O1	-4%
CC(=NNC(=S)N1CC2CCC(CC2)C1)c1nccs1	-15%
COc1ccccc1-n1c(/C=C/c2ccc(O)cc2)nc2ccccc2c1=O	-1%
COC(=O)c1cc(Oc2ccc(Cl)cc2Cl)ccc1[N+](=O)[O-]	0%
Cc1ccc(N=CN(C)C=Nc2ccc(C)cc2C)c(C)c1	6%
O=[N+]([O-])c1ccc(OP(=O)(O)Oc2ccc([N+](=O)[O-])cc2)cc1	-17%
CNCCc1ccc(OC)c(OC)c1	-1%
Cc1nn(Cc2ccccc2Cl)c(Cl)c1C(=O)O	4%
C=CCn1c(O)c(C(CC)=Nc2ccc(C(=O)O)cc2)c(=O)[nH]c1=O	-10%
COc1ccc(NC(=O)c2cn(CCC#N)nc2-c2ccc([N+](=O)[O-])cc2)cc1	0%
Cc1cccc(NC(=O)[C@@H](NC(=O)N2C[C@H]3C[C@@H](C2)c2cccc(=O)n2C3)C(C)C)c1	9%
CSc1ncc(/C=C2/C(=O)NC(=O)N(c3ccc(C(C)C)cc3)C2=O)cn1	?
CCCn1c(C)c(C(=O)c2cccc3ccccc23)c2ccccc21	-10%&8%
COc1ccccc1N1CCN(Cc2ccc(Br)cc2)CC1	-2%
CC1=NN(c2ccccc2)C(=O)/C1=C/c1c(O)[nH]c(=S)[nH]c1=O	?
C[N+](C)(C)Cc1ccccc1	0%
CN1C(=O)NC(=O)C2(CCCC2)C1=O	8%
Cc1ccc(N)cc1C	10%
COC[C@]12CN(C=O)C3C4C(OC)C1[C@@]3(C1CC3(O)C(OC)C(O)C4(OC(C)=O)C1C3OC(=O)c1ccccc1)[C@@H](OC)CC2O (stereo not given in full)	-6%
CCN1C[C@]2(COC)CC[C@H](OC)[C@@]34C5C[C@H]6C(=O)C5[C@](O)(C[C@H]6OC)[C@@](O)(C(OC)C23)[C@@H]14 (stereo not given in full)	-6%
CCN1CC2(COC(=O)c3ccccc3N)CCC(OC)C34C5CC6C(OC)CC(O)(C5C6OC)C(O)(C(OC)C23)C14 (stereo not given)	-7%

# Next section:
SMILES,VDR inhibitor
O=C(NCc1ccco1)c1ccc(Cn2c(=O)c3ccccc3n(Cc3cccc(F)c3)c2=O)cc1,?
Cc1ccccc1C1=NCC(=S)Nc2ccc(Cl)cc21,-8%
CN(C)c1ccc(/C=C/[N+](=O)[O-])cc1,?
CCn1c(=N)n(Cc2ccccc2F)c2ccccc21,10%
Cc1cc(C=C2C(=O)N(C)C(=O)N(C)C2=O)c(C)n1-c1ccccc1,-3%
O=C1Nc2ccccc2/C1=C/c1cnc[nH]1,1%
CC(C)C[C@H](NC(=O)[C@H](Cc1ccccc1)NC(=O)CNC(=O)[C@@H](COC(C)(C)C)NC(=O)[C@@H](N)Cc1ccc(O)cc1)C(=O)N[C@H](C(=O)O)[C@@H](C)OC(C)(C)C,6%
CC(C)C1(C)N=C(c2ncccc2C(=O)O)NC1=O (stereo not given),-6%
CCOC(=O)c1ccc(NC(=O)c2cccn(Cc3ccc(C)cc3)c2=O)cc1,-2%
CC#CP(=O)(OC)C(O)(CF)c1ccccc1 (stereo not given),24%
O=C1COc2ccc(C(=O)COC(=O)Cc3ccccc3)cc2N1,-7%
CC(Cc1ccccc1Sc1ccccc1O)N(C)C (stereo not given),-11%
COc1ccc(CN2C(=O)NC(=O)/C(=C/c3cc(OC)c(OC)c(OC)c3)C2=O)cc1,?
Cc1cccc(-n2c(-c3ccco3)nc3ccccc3c2=O)c1C,-4%
N#Cc1ccc(NC(=O)CN2CCCCCC2)cc1Cl,23%
N#CC(c1ccccc1)N1CCOCC1 (stereo not given),-8%
CCCN(CCC)C1Cc2cc(OC)c(OC)cc2C1,-9%&-16%
O=[N+]([O-])c1ccc2c(c1)C(c1ccccc1)=NCCN2,3%
Clc1ccc(N2CC2c2ccncc2)cc1 (stereo not given),6%
C=C1C(O)[C@@H]2O[C@]3(CC[C@H](/C=C/C(C)[C@@H]4CC(C)=CC5(O[C@H](C[C@@](C)(O)C(=O)O)CCC5O)O4)O3)CC[C@H]2O[C@@H]1C(O)CC(C)[C@H]1OC2(CCCCO2)CCC1C (stereo not given in full),0%
OCC(O)Cc1ccc2c(c1)OCO2 (stereo not given),-1%
O=[N+]([O-])OC1CO[C@H]2C(O[N+](=O)[O-])COC12 (stereo not given in full),5%
CC(=O)N[C@@H]1CCSC1=O,-3%
CC1=CC(=C2C(=O)NC(=O)NC2=O)C=C(C(F)(F)F)N1Cc1ccccc1,-7%
COc1ccc(CCNCc2cccc(C(F)(F)F)c2)cc1OC,-18%
CCC1(CC)CCNC1=O,12%
C[C@H](N)Cc1cnc[nH]1,-6%&8%
COc1cc(/C=C2/C(=O)NC(=O)N(c3ccc(C)cc3)C2=O)cc(OC)c1OC,?
NC1C2CN3CCN(C2)CC1(c1ccccc1)C3 (stereo not given),-1%
O=C1NC(=O)N(c2ccccc2)C(=O)/C1=C\c1ccc([N+](=O)[O-])s1,40µM*
O=C1NC(=O)N(Cc2ccccc2Cl)C(=O)/C1=C/c1cccs1,?
CC=C(C)C(=O)O[C@H]1C(C)=C2[C@@H]3OC(=O)[C@@](C)(O)[C@@]3(O)[C@@H](OC(=O)CCC)C[C@](C)(OC(C)=O)[C@@H]2[C@@H]1OC(=O)CCCCCCC,17%
COC[C@]12CN(C)C3C4[C@H](OC)[C@H]1C3([C@@H](OC)C[C@H]2O)[C@@H]1C[C@@]2(O)[C@H](OC(=O)c3ccccc3)[C@@H]1[C@]4(OC(C)=O)[C@@H](O)[C@@H]2OC,7%
CCCN1CCC[C@@H](c2cccc(O)c2)C1,4%&-4%
CCOC(=O)c1c(-n2c(C)cc(C=C3C(=O)NC(=O)NC3=O)c2C)sc2c1CCCC2,-14%
Cc1ccc(-n2c(O)c(/C=N/N3CCCCC3c3cccnc3)c(=O)[nH]c2=S)cc1 (stereo not given),10%
Cc1ccc(-c2nc3ccc(C)cn3c2CC(=O)N(C)C)cc1,-16%&2%
C[C@]12CCC3[C@@H](CC[C@@H]4C[C@H](O)CC[C@]34C)[C@@H]1CCC2=O (stereo not given in full),1%
CC1CCCN(C(=O)c2ccc(N3CC4CC(C3)c3cccc(=O)n3C4)c([N+](=O)[O-])c2)C1 (stereo not given),-6%
O=C(c1ccccc1)c1cn(CC(=O)N2CCCc3ccccc32)c2ccccc12,3%
COc1ccccc1CCNC1CCCC(C)C1 (stereo not given),3%
Cc1ccc(C2N(c3ccccn3)C(=O)C3CCCN32)o1 (stereo not given),-8%
O=C1CC23c4ccccc4N4C(=O)CC5OCC=C6CN1C2CC6C5C43 (stereo not given),-15%
C=CCn1c(O)c(C(C)=NC(C)c2ccccc2)c(=O)[nH]c1=O (stereo not given),-18%
N#CSCC(=O)N1c2ccccc2CCc2ccccc21,?
O=C1NC(=O)[C@]2(Cc3ccccc3N3CCN(c4ccccc4)CC32)C(=O)N1c1ccccc1 (stereo not given in full),-6%
CCOc1ccccc1N1C(=O)NC(=O)C(CCc2ccncc2)(CCc2ccncc2)C1=O,-3%
CC(C)(C)c1o[nH]c(=O)c1C[C@H](N)C(=O)O,-2%
COC(=O)C(O)(c1ccc(N(C)S(=O)(=O)c2ccccc2)cc1)C(F)(F)F (stereo not given),-2%
CC1NCCOC1c1ccccc1 (stereo not given),6%
# (continued)
SMILES,VDR inhibitor
COc1ccc(C(C)=O)cc1CC(C(=O)c1ccc(F)cc1)N(C)C (stereo not given),-2%
COc1ccc(Cl)cc1NC(=O)c1sc2nc3c(cc2c1N)N1CCC3CC1,7%
COc1cccc(NC(=O)Cn2cc(C(=O)c3ccccc3)c3ccccc32)c1,1%
C=CC1CN2CCC1CC2C(O)c1ccnc2ccccc12 (stereo not given),-4%&9%&-17%
Cc1ccc(/C=C2\C(=O)NC(=O)N(CC3CCCO3)C2=O)s1 (stereo not given),?
C/C(=C(/CCOC(=O)C(C)C)SS/C(CCOC(=O)C(C)C)=C(\C)N(C=O)Cc1cnc(C)nc1N)N(C=O)Cc1cnc(C)nc1N,16µM*
CCOC(=O)[C@]12Cc3cc(N(C)C)ccc3[C@H]1N(Cc1ccccc1)C(=O)c1ccccc12,-5%
O=C(O)Cn1cc(C=C2C(=O)NC(=O)NC2=O)c2ccccc21,-7%
C1CCC2CCCCC2C1 (stereo not given),-21%
O=[N+]([O-])c1[nH]cnc1Br,11%
C=Cc1cc(OC)c2c(c1)c(=O)oc1c2cc(OC)c2c(O)ccc(C3OC(C)C(O)C(C)(O)C3O)c21 (stereo not given),-8%
O=[N+]([O-])NC1=NCCN1Cc1ccc(Cl)nc1,?
CCN(CCCl)c1cc(CN(C)C)cc(NC(=O)c2ccc(C(=O)Nc3cc(CN(C)C)cc(N(CC)CCCl)c3)cc2)c1,29%
COc1cccc(O)c1CN1CCCC(C(=O)c2ccccc2SC)C1 (stereo not given),13%
